Source: PubChem
Mtb H37Rv: Mycobacterium tuberculosis H37Rv growth inhibition, cell based, confirmatory dose response (AID 1949). most inactive calls were filed without a number and no value below 0 was filed. inhibition, % at 10 µg/mL; hits with a dose series show IC50 in µg/mL. hit rate 1.6% among 100,000;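 active = confirmed in a dose series; inconclusive = about 50% or more but not retested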;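 note: bacteria grown 7 days with compound before Alamar blue readout; 0% = untreated bacteria and 100% = reference antibiotic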
Active calls of the source: *.

What do the screens show for `Brc1ccc(-c2noc(CSc3ccccc3)n2)cc1`?
Mtb H37Rv: inactive

Results for CCCC(=O)Nc1ccc(Cl)c(NC(=O)c2ccco2)c1 ?
Mtb H37Rv: inactive

Results for O=C(NC(=S)Nc1ccccc1N1CCOCC1)c1cccc(Cl)c1Cl ?
Mtb H37Rv: inactive

What do the screens show for `CC(=O)c1cccc(NC(=O)CSc2nc3ccccc3c(=O)n2-c2ccccc2)c1`?
Mtb H37Rv: inactive

What do the screens show for `CS(=O)(=O)N1CCC(C(=O)Nc2ccccc2Br)CC1`?
Mtb H37Rv: inactive

What do the screens show for `CNC(=O)C1=C(C)NC(=O)NC1c1ccc(Cl)cc1` (centres undefined)?
Mtb H37Rv: 1%

Results for O=C(C(Cc1ccccc1)N1C(=O)c2ccccc2C1=O)N1c2ccccc2CCc2ccccc21 (centres undefined) ?
Mtb H37Rv: 26%

Results for Cc1cc(C)c(S(=O)(=O)NCC(=O)Nc2ccc(Br)cc2)c(C)c1 ?
Mtb H37Rv: 3%

Results for Cc1ccc(/C=N/N=C2/NC(=O)C(CC(=O)Nc3ccc(C)c(Cl)c3)S2)o1 (centres undefined) ?
Mtb H37Rv: inactive

Results for COc1ccc(-c2ccc(S(=O)(=O)N3CCCC3)cc2)cc1 ?
Mtb H37Rv: 3%

How did COc1ccccc1C(=O)Nc1ccc(S(=O)(=O)N(C)C)cc1 do in these assays?
Mtb H37Rv: inactive

Results for COc1cc(CNC2CCCCCC2)cc(OC)c1OC ?
Mtb H37Rv: 0%

Results for COc1ccc(CCNC(=O)COc2ccc3ccccc3c2Br)cc1 ?
Mtb H37Rv: 9%

What do the screens show for `Cc1ccc(-c2cc(C(Cl)Cl)on2)cc1`?
Mtb H37Rv: inactive

How did COc1ccccc1OCc1ccc(C(=O)N(C)c2ccccc2)o1 do in these assays?
Mtb H37Rv: 0%

What do the screens show for `COc1cccc(NC(=O)CSc2nnc(COc3ccccc3Cl)o2)c1`?
Mtb H37Rv: 3%

What do the screens show for `CC(=O)c1cccc(NC(=O)NNC(=O)C(c2ccccc2)c2ccccc2)c1`?
Mtb H37Rv: inactive

Results for Cc1cc(NC(=O)CCN2C(=O)C3C4CCC(C4)C3C2=O)cc(C)c1Br (centres undefined) ?
Mtb H37Rv: inactive

What do the screens show for `COc1cc(Cl)c(C)cc1NC(=O)COc1cc(C)c(Br)c(C)c1`?
Mtb H37Rv: inactive

Results for COc1ccc(Oc2coc3cc(OC(=O)c4cncc(Br)c4)ccc3c2=O)cc1 ?
Mtb H37Rv: 3%

What do the screens show for `CC(=O)c1cccc(NS(=O)(=O)N2CCCCCC2)c1`?
Mtb H37Rv: inactive

Results for Cc1cccc(Oc2ncnc3sccc23)c1 ?
Mtb H37Rv: inactive

How did Cc1c(Cl)cccc1NC(=O)c1ccc(Cl)c(Cl)c1 do in these assays?
Mtb H37Rv: 4%

Results for Cn1c(SCC(=O)Nc2ccccc2C(F)(F)F)nnc1-c1ccc(Cl)cc1 ?
Mtb H37Rv: inactive

What do the screens show for `COC(=O)c1c(N)sc(/C(C)=C/C#N)c1C`?
Mtb H37Rv: inactive

What do the screens show for `COc1cc(NC(=O)c2cc(Br)cc(C)c2OC)ccc1NC(=O)C(C)C`?
Mtb H37Rv: 2%

Results for COC(=O)C1=C(C)NC2=C(C(=O)CC(C)(C)C2)C1c1ccncc1 (centres undefined) ?
Mtb H37Rv: inactive

What do the screens show for `Cc1c(Br)ccc(NC(=O)CSc2nnc(COc3ccc(C(C)C)cc3)n2C)c1C`?
Mtb H37Rv: inactive

How did O=C(NC(=S)Nc1ccc(Cl)cc1Cl)c1ccc([N+](=O)[O-])cc1 do in these assays?
Mtb H37Rv: inactive

Results for Brc1ccc(Cc2cn3cc(-c4ccccc4)nc3s2)cc1 ?
Mtb H37Rv: inactive

Results for COC(=O)C1=C(C)NC2=C(C(=O)CC(c3ccccc3)C2)C1c1ccc(C)o1 (centres undefined) ?
Mtb H37Rv: inactive

What do the screens show for `Cn1ncc(C#N)c1NC(=O)C1CC(c2c(F)cccc2Cl)=NO1` (centres undefined)?
Mtb H37Rv: inactive

How did CN(Oc1ccccc1)C(=O)COc1ccc2c(=O)c(-c3ccccc3)coc2c1 do in these assays?
Mtb H37Rv: inactive

Results for Cc1ccc(OCCOCCn2cnc3ccccc3c2=O)c(Br)c1 ?
Mtb H37Rv: 3%

What do the screens show for `CCOC(=O)C1=C(C)NC(=O)NC1c1ccccc1Cl` (centres undefined)?
Mtb H37Rv: inactive

How did O=C(Nc1ccc(I)cc1)c1ccc(-c2ccccc2Cl)o1 do in these assays?
Mtb H37Rv: inactive

What do the screens show for `O=C(Nc1ccccc1N1CCCC1)c1ccc(-c2cccc(Cl)c2)o1`?
Mtb H37Rv: 6µg/mL*

Results for CC(=O)c1cc(C#N)c(SCC(=O)Nc2nccs2)nc1C ?
Mtb H37Rv: inactive

What do the screens show for `CCC(Oc1ccccc1)C(=O)Nc1ccccc1-c1ccccc1` (centres undefined)?
Mtb H37Rv: inactive

Results for CSc1nc(C)cc(Oc2ccc(OCc3ccccc3)nn2)n1 ?
Mtb H37Rv: inactive

What do the screens show for `Cc1ccccc1-c1nnc(SCC(=O)Nc2ccc(OCc3ccccc3)cc2)n1C`?
Mtb H37Rv: inactive

What do the screens show for `Cc1ccc(CNC(=O)Cc2cccs2)cc1`?
Mtb H37Rv: 3%

What do the screens show for `Cc1ccc(-c2[nH]nc3c2C(c2ccoc2)C(C#N)=C(N)O3)cc1C` (centres undefined)?
Mtb H37Rv: 1%

How did CCN1CCN(c2ccc(NC(=O)COc3ccc(Cl)cc3C)cc2Cl)CC1 do in these assays?
Mtb H37Rv: 0%

How did COc1ccc(OC)c2c(C)cc(N3CCN(C(=O)c4ccc(Cl)cc4)CC3)nc12 do in these assays?
Mtb H37Rv: inactive

What do the screens show for `COc1ccc(/C=C(\C#N)c2nn(CCO)c(N)c2C#N)c(OC)c1`?
Mtb H37Rv: inactive

What do the screens show for `Cc1ccc(C(C)(C)C)c(OCCOCCN2CCCCC2)c1`?
Mtb H37Rv: inactive

What do the screens show for `COc1ccccc1C(=O)NC1CCCCC1NC(=O)c1ccccc1OC` (centres undefined)?
Mtb H37Rv: inactive

What do the screens show for `Cc1ccc(OCCN2CCOCC2)c(Br)c1`?
Mtb H37Rv: inactive

Results for CC(C)CNS(=O)(=O)c1ccc(CCC(=O)NCCC2=CCCCC2)cc1 ?
Mtb H37Rv: 0%

Results for CCOC(=O)CC(=O)CSc1nc(-c2ccc3c(c2)OCO3)cc(C(F)(F)F)c1C#N ?
Mtb H37Rv: inactive

What do the screens show for `O=S(=O)(c1ccc(I)cc1)N1CCN(C/C=C/c2ccccc2)CC1`?
Mtb H37Rv: inactive

What do the screens show for `CCc1cccc(C)c1NC(=O)CCN1C(=O)c2ccccc2C1=O`?
Mtb H37Rv: inactive

What do the screens show for `CCn1c(O)c2ccc(C(=O)N=NC(=O)c3cccnc3)cc2c1O`?
Mtb H37Rv: inactive

How did O=C(Nc1ccc2oc(=O)ccc2c1)c1ccc(OCc2ccccc2)cc1 do in these assays?
Mtb H37Rv: inactive

Results for O=C(Cc1cccs1)NCc1ccccc1F ?
Mtb H37Rv: 2%

How did CC1CCN(CC(=O)Nc2cccc(C(F)(F)F)c2)CC1 do in these assays?
Mtb H37Rv: inactive

Results for O=C1CC(NCCc2ccccc2F)C(=O)N1c1ccc(I)cc1 (centres undefined) ?
Mtb H37Rv: inactive

Results for CN(C)CCn1c(C(=O)O)cc2ccccc21 ?
Mtb H37Rv: 4%

Results for Cc1cc(C(=O)O)ccc1NC(=O)Cc1ccccc1 ?
Mtb H37Rv: inactive

Results for Cc1ccc2nc(/C(C#N)=C\c3ccc(Cl)s3)[nH]c2c1 ?
Mtb H37Rv: inactive

What do the screens show for `CC(C)CNc1ncnc(N)c1[N+](=O)[O-]`?
Mtb H37Rv: inactive

What do the screens show for `CCOC(=O)COc1cc(Br)c(C2NC(=S)NC(C)=C2C(=O)OC)cc1OC` (centres undefined)?
Mtb H37Rv: 3%

Results for Cc1cc(C(=O)NCC(C)C)ccc1[N+](=O)[O-] ?
Mtb H37Rv: inactive

How did O=C(c1ccco1)N1N=C(c2ccccc2)CC1c1ccccc1 (centres undefined) do in these assays?
Mtb H37Rv: 9%

Results for Cn1c(SCc2cccc(C#N)c2)nc2ccccc2c1=O ?
Mtb H37Rv: inactive

What do the screens show for `Cc1ccc(NC(=O)COc2ccccc2)c(NC(=O)c2ccccc2I)c1`?
Mtb H37Rv: inactive

How did O=C(Cn1cnc2scc(-c3cccc([N+](=O)[O-])c3)c2c1=O)NCc1ccco1 do in these assays?
Mtb H37Rv: 1%

How did O=C(CN1CCN(S(=O)(=O)c2ccccc2)CC1)Nc1ccc(Br)cc1 do in these assays?
Mtb H37Rv: 1%

What do the screens show for `Cc1c(C(=O)NC(=S)Nc2cccc(NC(=O)C(C)C)c2)cccc1[N+](=O)[O-]`?
Mtb H37Rv: inactive

How did O=C(Nc1nc2c(s1)CCCC2)c1ccccc1Cl do in these assays?
Mtb H37Rv: 16%

What do the screens show for `CCCCC(NC(=O)c1cccc(F)c1)c1ccccc1` (centres undefined)?
Mtb H37Rv: inactive

How did CCCC(=O)Nc1nc2ccc(NC(=S)NC(=O)CC)cc2s1 do in these assays?
Mtb H37Rv: inconclusive

Results for CCCCN(CC)C(=O)c1ccccc1SCC ?
Mtb H37Rv: inactive

Results for CC1CC(C)CN(C(=O)Nc2cccc(Cl)c2)C1 (centres undefined) ?
Mtb H37Rv: inactive

Results for COc1ccccc1CNC(=O)CN(c1cccc(C)c1C)S(=O)(=O)c1ccc(C)cc1 ?
Mtb H37Rv: inactive

How did COc1cc(Cl)c(S(=O)(=O)NCc2ccco2)cc1Cl do in these assays?
Mtb H37Rv: inactive

How did O=C(CN(c1ccccc1)S(=O)(=O)c1ccc(Cl)cc1)N1CCc2ccccc2C1 do in these assays?
Mtb H37Rv: 7%

Results for CCC(C)NS(=O)(=O)c1ccc(NS(=O)(=O)c2ccc(C)cc2)cc1 (centres undefined) ?
Mtb H37Rv: inactive

Results for COc1ccccc1OCC(=O)Nc1ccc(F)c(F)c1 ?
Mtb H37Rv: inactive

How did O=C(c1cnsn1)N1CCN(c2ccccn2)CC1 do in these assays?
Mtb H37Rv: 0%

What do the screens show for `Cn1ncc(NC(=O)Nc2ccc(F)cc2F)c1C(N)=O`?
Mtb H37Rv: inactive

How did CC(=O)Nc1ccc(NC(=O)CN(C)CCC#N)cc1 do in these assays?
Mtb H37Rv: inactive

How did CC(=O)Nc1cccc(C(=O)NCCc2nc3ccccc3[nH]2)c1 do in these assays?
Mtb H37Rv: inactive

What do the screens show for `CC(C)C(=O)N1CCN(c2ccc(NC(=O)C(C)Oc3ccc(Cl)cc3Cl)cc2)CC1` (centres undefined)?
Mtb H37Rv: inactive

How did COC(=O)C1=CN(CCc2ccc(F)cc2)C=C(C(=O)OC)C1c1cc(C)ccc1C do in these assays?
Mtb H37Rv: inactive

What do the screens show for `CC(C)N(Cc1nc(-c2ccc(Cl)cc2)no1)C(=O)C(c1ccccc1)c1ccccc1`?
Mtb H37Rv: 7%

What do the screens show for `CCOC(=O)c1c(NC(=O)C23CCC(C)(C(=O)O2)C3(C)C)sc2c1CCCC2` (centres undefined)?
Mtb H37Rv: 2%

How did NC(=O)c1ccccc1NC(=O)CS(=O)(=O)Cc1ccccc1 do in these assays?
Mtb H37Rv: inactive

Results for Cc1nn(C)c(C(=O)NNC(=S)NC2CCCCC2)c1Br ?
Mtb H37Rv: 10%

What do the screens show for `CC(=O)c1ccc(NC(=O)CSc2nc(C)c(Cc3ccccc3)c(=O)[nH]2)cc1`?
Mtb H37Rv: inactive

What do the screens show for `Cc1ccc(C(=O)Nc2ccc(S(=O)(=O)NC(C)(C)C)cc2)cc1C`?
Mtb H37Rv: inactive

How did O=C(Nc1ccc(Cl)cn1)c1ccc(COCC(F)(F)F)cc1 do in these assays?
Mtb H37Rv: inactive

How did CSc1ccccc1NC(=O)CN(Cc1ccc(F)cc1)S(=O)(=O)c1ccccc1 do in these assays?
Mtb H37Rv: 8%

How did O=C(O)CCCC(=O)NCc1ccc2c(c1)OCO2 do in these assays?
Mtb H37Rv: inactive

Results for CCc1ccc(C(=O)C2(C)C3c4cc(Br)ccc4OC(=O)C32C(=O)c2ccccc2)cc1 (centres undefined) ?
Mtb H37Rv: 17%

What do the screens show for `Cc1ccccc1C(=O)Oc1ccc(NC2=NS(=O)(=O)c3ccccc32)cc1`?
Mtb H37Rv: inactive

Of the compounds above, these contain an aryl thioether with sulfur outside any ring:
What do the screens show for `Brc1ccc(-c2noc(CSc3ccccc3)n2)cc1`?
Mtb H37Rv: inactive

What do the screens show for `CC(=O)c1cccc(NC(=O)CSc2nc3ccccc3c(=O)n2-c2ccccc2)c1`?
Mtb H37Rv: inactive

What do the screens show for `COc1cccc(NC(=O)CSc2nnc(COc3ccccc3Cl)o2)c1`?
Mtb H37Rv: 3%

Results for Cn1c(SCC(=O)Nc2ccccc2C(F)(F)F)nnc1-c1ccc(Cl)cc1 ?
Mtb H37Rv: inactive

What do the screens show for `Cc1c(Br)ccc(NC(=O)CSc2nnc(COc3ccc(C(C)C)cc3)n2C)c1C`?
Mtb H37Rv: inactive

Results for CC(=O)c1cc(C#N)c(SCC(=O)Nc2nccs2)nc1C ?
Mtb H37Rv: inactive

Results for CSc1nc(C)cc(Oc2ccc(OCc3ccccc3)nn2)n1 ?
Mtb H37Rv: inactive

What do the screens show for `Cc1ccccc1-c1nnc(SCC(=O)Nc2ccc(OCc3ccccc3)cc2)n1C`?
Mtb H37Rv: inactive

Results for CCOC(=O)CC(=O)CSc1nc(-c2ccc3c(c2)OCO3)cc(C(F)(F)F)c1C#N ?
Mtb H37Rv: inactive

Results for Cn1c(SCc2cccc(C#N)c2)nc2ccccc2c1=O ?
Mtb H37Rv: inactive

Results for CCCCN(CC)C(=O)c1ccccc1SCC ?
Mtb H37Rv: inactive

What do the screens show for `CC(=O)c1ccc(NC(=O)CSc2nc(C)c(Cc3ccccc3)c(=O)[nH]2)cc1`?
Mtb H37Rv: inactive

How did CSc1ccccc1NC(=O)CN(Cc1ccc(F)cc1)S(=O)(=O)c1ccccc1 do in these assays?
Mtb H37Rv: 8%

A portion of the library (hit frequency here may not be typical).
